Yeast UUG start: yeast start codon fidelity modulation; S. cerevisiae UUG-firefly luciferase reporter, luminescence/redox ratio; AID 602363; activity score, % at 18.7 µM; 0.13% of 350,000 active;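 active = replicate mean at a twofold rise or more, about +100% in these data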;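 also: firefly luciferase made from a UUG start codon reports start codon fidelity; reporter light over untreated wells divided by growth signal over untreated wells; some hits fall short of that in this replicate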
Env fusion inh: HIV envelope-mediated fusion inhibition. 1.1% of 360,000 active. AID 651610. inhibition, % at 12.3 µM. HeLa-JRFL Env/CEM21 cell fusion, luciferase;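 active = mean replicate inhibition score of at least 50 and every replicate individually at or above 50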;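 also: 0% = plate neutral controls and 100% = maraviroc near 300 nM; one replicate is shown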
The depositor's hits bear a star; [ ] = dose if it differs, or a comment.

SMILES	Yeast UUG start	Env fusion inh
O=C(C[C@@H]1CC[C@@H]2[C@H](COC[C@@H](O)CN2CCC(F)(F)F)O1)NCc1ccc(Oc2ccccc2)cc1	-7	15[16.7 µM]
Cc1ccc(S(=O)(=O)Nc2ccc3c(c2)CC(=O)N([C@H](C)CO)C[C@H](C)[C@H](CN(C)S(=O)(=O)c2c(C)noc2C)O3)cc1	-3	14[16.7 µM]
C[C@@H]1CN([C@@H](C)CO)C(=O)Cc2cc(NC(=O)CCN3CCOCC3)ccc2O[C@@H]1CN(C)S(=O)(=O)c1ccc(Cl)cc1	10	-26[16.7 µM]
C[C@@H]1CCCCO[C@H](CN(C)C(=O)Nc2ccc3c(c2)OCO3)[C@H](C)CN([C@H](C)CO)C(=O)c2cc(NS(=O)(=O)c3ccccc3)ccc2O1	7	13[16.7 µM]
C[C@H](CO)N1C[C@H](C)[C@H](CN(C)Cc2ccc3c(c2)OCO3)Oc2ccc(NS(=O)(=O)c3ccc(F)cc3)cc2CC1=O	4	-7[16.7 µM]
C[C@@H]1CN([C@H](C)CO)C(=O)c2cc(-c3cccnc3)cnc2O[C@@H]1CN(C)S(C)(=O)=O	0	1[16.7 µM]
Cc1nn(C)cc1NC(=O)C[C@H]1CC[C@H]2[C@@H](COc3ccc(NC(=O)C(C)C)cc3C(=O)N2C)O1	-13	-1[16.7 µM]
O=C(N[C@H]1CC[C@@H](CCn2cc(C3(O)CCCC3)nn2)O[C@@H]1CO)C1CC1	-6	13[16.7 µM]
C[C@H]1CN([C@@H](C)CO)C(=O)Cc2cc(NC(=O)NC3CCCCC3)ccc2O[C@@H]1CN(C)Cc1ccc(Oc2ccccc2)cc1	-12	8[16.7 µM]
Cc1noc(C)c1NC(=O)NCC[C@@H]1CC[C@H](NC(=O)Nc2cccc(Cl)c2)[C@H](CO)O1	0	6[16.7 µM]
CN(C)CC(=O)Nc1ccc2c(c1)[C@@H]1C[C@H](CC(=O)NCc3ccccc3F)O[C@H](CO)[C@@H]1O2	-10	39[16.7 µM]
C[C@@H]1CN([C@H](C)CO)C(=O)c2cc(NC(=O)C3CCCCC3)ccc2O[C@@H](C)CCCCO[C@H]1CN(C)Cc1ccccc1	2	-5[16.7 µM]
C[C@H](CO)N1C[C@H](C)[C@H](CN(C)CC2CC2)Oc2c(NS(C)(=O)=O)cccc2C1=O	12	-3[16.7 µM]
C[C@H]1CCCCO[C@H](CN(C)C(=O)Nc2ccc(C(F)(F)F)cc2)[C@@H](C)CN([C@@H](C)CO)C(=O)c2cc(NC(=O)Nc3ccccc3)ccc2O1	-11	64*[16.7 µM]
C[C@@H]1CN([C@@H](C)CO)C(=O)c2cc(C3=CCCCC3)cnc2O[C@@H]1CN(C)C(=O)c1cccc(F)c1	12	16[16.7 µM]

Rewritten with values under each structure: 5 of the compounds above
Every second line gives: Yeast UUG start | Env fusion inh
Cc1ccc(S(=O)(=O)Nc2ccc3c(c2)CC(=O)N([C@H](C)CO)C[C@H](C)[C@H](CN(C)S(=O)(=O)c2c(C)noc2C)O3)cc1
→ -3 | 14[16.7 µM]
C[C@@H]1CN([C@@H](C)CO)C(=O)Cc2cc(NC(=O)CCN3CCOCC3)ccc2O[C@@H]1CN(C)S(=O)(=O)c1ccc(Cl)cc1
→ 10 | -26[16.7 µM]
C[C@@H]1CCCCO[C@H](CN(C)C(=O)Nc2ccc3c(c2)OCO3)[C@H](C)CN([C@H](C)CO)C(=O)c2cc(NS(=O)(=O)c3ccccc3)ccc2O1
→ 7 | 13[16.7 µM]
C[C@H](CO)N1C[C@H](C)[C@H](CN(C)Cc2ccc3c(c2)OCO3)Oc2ccc(NS(=O)(=O)c3ccc(F)cc3)cc2CC1=O
→ 4 | -7[16.7 µM]
C[C@@H]1CN([C@H](C)CO)C(=O)c2cc(-c3cccnc3)cnc2O[C@@H]1CN(C)S(C)(=O)=O
→ 0 | 1[16.7 µM]

The results go on.
SMILES	Yeast UUG start	Env fusion inh
COc1cccc(-c2ccc3c(c2)O[C@@H](CN(C)C(=O)C2CCCCC2)[C@@H](C)CN([C@@H](C)CO)S3(=O)=O)c1	3	11[16.7 µM]
O=C(C[C@H]1CC[C@H]2NC[C@H](O)COC[C@@H]2O1)NCc1ccc(Oc2ccccc2)cc1	-17	-11[16.7 µM]
C[C@H](CO)N1C[C@H](C)[C@@H](CN(C)C(=O)C2CCCCC2)OCCCC[C@H](C)Oc2ccc(NC(=O)NC3CCCCC3)cc2C1=O	-14	-11[16.7 µM]
C[C@H]1CN([C@@H](C)CO)S(=O)(=O)c2ccc(C#CC3CC3)cc2O[C@H]1CN(C)Cc1ccncc1	-8	-1[16.7 µM]
C[C@H](CO)N1C[C@H](C)[C@@H](CN(C)C(=O)c2ccccc2)OCCCC[C@H](C)Oc2ccc(NC(=O)Nc3cccc4ccccc34)cc2C1=O	5	-66[16.7 µM]
COCC#Cc1ccc2c(c1)O[C@H](CN(C)C(=O)Nc1ccc(OC)cc1)[C@H](C)CN([C@H](C)CO)S2(=O)=O	-3	-22[16.7 µM]
CCC(=O)N(C)C[C@H]1Oc2cc(C#CCC(C)C)ccc2S(=O)(=O)N([C@H](C)CO)C[C@H]1C	16	14[16.7 µM]
CCC(=O)N1C[C@H](C)[C@@H](OC)CN(C)C(=O)c2cc(NC(=O)Nc3cccc(F)c3)ccc2OC[C@H]1C	22	23[16.7 µM]
CCCN(C)C[C@@H]1Oc2ncc(-c3ccccc3OC)cc2C(=O)N([C@@H](C)CO)C[C@@H]1C	15	13[16.7 µM]
O=C(C[C@H]1C=C[C@H](NC(=O)Nc2ccc3c(c2)OCO3)[C@@H](CO)O1)NCc1ccccc1	-7	-4[16.7 µM]
Cc1noc(C)c1NC(=O)N(C)C[C@H]1Oc2c(NC(=O)Nc3ccccc3)cccc2C(=O)N([C@@H](C)CO)C[C@@H]1C	-4	-15[16.7 µM]
C[C@@H]1CN([C@H](C)CO)C(=O)c2cc(-c3cccnc3)cnc2O[C@H]1CN(C)Cc1ccc(Oc2ccccc2)cc1	-24	11[16.7 µM]
C[C@@H]1CN([C@H](C)CO)C(=O)c2cc(-c3ccccc3)cnc2O[C@@H]1CN(C)C(=O)Cc1cccnc1	-12	-4[16.7 µM]
C[C@@H]1CN([C@H](C)CO)C(=O)c2cc(NC(=O)CCN3CCOCC3)ccc2O[C@@H]1CN(C)S(=O)(=O)c1ccc(F)cc1	-20	-12[16.7 µM]
O=C(Nc1ccc(F)cc1)N[C@H]1C=C[C@H](CC(=O)N2CCCCC2)O[C@@H]1CO	9	-35[16.7 µM]

Env fusion inh, hit marks shown above.
SMILES	Yeast UUG start	Env fusion inh
C[C@H]1CCCCO[C@H](CN(C)C(=O)Nc2ccc(C(F)(F)F)cc2)[C@@H](C)CN([C@@H](C)CO)C(=O)c2cc(NC(=O)Nc3ccccc3)ccc2O1	-11	64*[16.7 µM]

Other structures follow:
SMILES	Yeast UUG start	Env fusion inh
C[C@@H]1CN([C@H](C)CO)S(=O)(=O)c2ccc(C#Cc3ccc(F)cc3)cc2O[C@H]1CN(C)C	-2	36[16.7 µM]
CNC(=O)C[C@H]1CC[C@H]2[C@H](COc3ccc(NC(=O)c4cc(C)on4)cc3C(=O)N2C)O1	8	-23[16.7 µM]
Cc1noc(C)c1NC(=O)N(C)C[C@@H]1Oc2ccc(NC(=O)Nc3ccc(C(F)(F)F)cc3)cc2C(=O)N([C@H](C)CO)C[C@H]1C	-5	29[16.7 µM]
CN1C(=O)c2cc(NC(=O)c3ccc(F)c(F)c3)ccc2OC[C@@H]2O[C@@H](CC(=O)O)CC[C@H]21	2	-8[16.7 µM]
CC(C)C#Cc1cnc2c(c1)C(=O)N([C@@H](C)CO)C[C@@H](C)[C@H](CN(C)C(=O)c1ccc3c(c1)OCO3)O2	10	-3[16.7 µM]
C[C@@H]1CN([C@H](C)CO)C(=O)Cc2cc(NC(=O)Nc3ccc4c(c3)OCO4)ccc2O[C@H]1CN(C)C(=O)Nc1ccc2c(c1)OCO2	6	-4[16.7 µM]
C[C@@H]1CN([C@@H](C)CO)C(=O)c2cc(NC(=O)c3ccncc3)ccc2O[C@@H](C)CCCCO[C@H]1CN(C)S(C)(=O)=O	5	5[16.7 µM]
CNC[C@@H]1Oc2ccc(NC(=O)CCCN(C)C)cc2C(=O)N([C@H](C)CO)C[C@H]1C	-1	-2[16.7 µM]
CCC(=O)N(C)C[C@@H]1Oc2cc(C#C[C@H](C)O)ccc2S(=O)(=O)N([C@@H](C)CO)C[C@H]1C	8	-9[16.7 µM]
CCC(=O)Nc1ccc2c(c1)C(=O)N(C)[C@@H]1CC[C@@H](CC(=O)NC3Cc4ccccc4C3)O[C@@H]1CO2	13	-38[16.7 µM]
C[C@@H]1CN([C@H](C)CO)C(=O)c2cc(NC(=O)NC3CCCCC3)ccc2O[C@H]1CN(C)C(=O)Nc1ccc(C(F)(F)F)cc1	-8	-6[16.7 µM]
COc1ccc(S(=O)(=O)Nc2cccc3c2O[C@H](CN(C)Cc2ccc(-c4ccccc4)cc2)[C@H](C)CN([C@@H](C)CO)C3=O)cc1	16	1[16.7 µM]
CNC[C@H]1Oc2cc(C#Cc3ccncc3)ccc2S(=O)(=O)N([C@H](C)CO)C[C@@H]1C	-11	-16[16.7 µM]
C[C@H]1CN([C@@H](C)CO)C(=O)c2cc(C3=CCCC3)cnc2O[C@H]1CN(C)C(=O)C1CCOCC1	-1	-4[16.7 µM]
CCC(=O)Nc1ccc2c(c1)C(=O)N(C)[C@@H]1CC[C@@H](CC(=O)NCCOC)O[C@H]1CO2	1	-6[16.7 µM]
C[C@@H]1CN([C@H](C)CO)C(=O)c2cc(C#CC3CCCCC3)cnc2O[C@@H]1CN(C)Cc1cncnc1	17	2[16.7 µM]

Reformatted with each value named: 4 of the compounds above
C[C@H]1CCCCO[C@H](CN(C)C(=O)Nc2ccc(C(F)(F)F)cc2)[C@@H](C)CN([C@@H](C)CO)C(=O)c2cc(NC(=O)Nc3ccccc3)ccc2O1
  Yeast UUG start: -11; Env fusion inh: 64*[16.7 µM]

CNC[C@@H]1Oc2ccc(NC(=O)CCCN(C)C)cc2C(=O)N([C@H](C)CO)C[C@H]1C
  Yeast UUG start: -1; Env fusion inh: -2[16.7 µM]

CCCN(C)C[C@@H]1Oc2ncc(-c3ccccc3OC)cc2C(=O)N([C@@H](C)CO)C[C@@H]1C
  Yeast UUG start: 15; Env fusion inh: 13[16.7 µM]

COc1cccc(-c2ccc3c(c2)O[C@@H](CN(C)C(=O)C2CCCCC2)[C@@H](C)CN([C@@H](C)CO)S3(=O)=O)c1
  Yeast UUG start: 3; Env fusion inh: 11[16.7 µM]

Assay outcomes: PubChem, Broad Institute

Some of the compounds tested; count on the stated rates, not on these rows.
